PrP 5UTR inh: inhibition of PrP 5' UTR reporter expression; inhibition, % (concentration not given with the values); 0.35% of 340,000 active; cell-based PrP 5' UTR mRNA reporter, plate reader;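 active means every replicate at 50% or more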;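 further: 0 = median of the neutral control wells; tested in H4 reporter cells; numbers are from one replicate; inactives centre near -14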
Bead autofluor: counter-screen for toxin protease inhibitors: compound fluorescence. compound autofluorescence counterscreen, microsphere flow cytometry; hits give high values. fluorescence intensity (test concentration not listed). 3.1% of 360,000 active;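 active means at least 3 SD above the mean of all compounds, about 16000 in these data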;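 further: 100 nL of 1 mM stock went into each well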
BJeLR viability: MLPCN primary cell-based screen for lethality selective to Ras in HRASV12 cells | BJeLR (HRASV12) viability, CellTiter-Glo ATP luminescence, 48 h; reference of the scale not given here | inhibition, % (no concentration beside the values) | 0.17% of 300,000 active | AID 1554, 2009;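 active means replicate mean above 50%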;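 further: 50 nL library stock added to about 25 µL; numbers are from one replicate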
Sa ugtP lethal: growth inhibition of ugtP-null S. aureus, primary screen, RN4220 ugtP deletion, OD600; 16 h; some inactives read as strong as hits; growth inhibition, % (test concentration not listed); 0.54% of 330,000 active; AID 1259309, 2017;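 active means z-score under -3 and OD600 up to 0.15 on both plates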;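 further: plate controls were untreated wells for no effect and antibiotic for full effect; wells of about 80 µL received 100 nL stock; the first replicate is given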
RN4220 kill: growth inhibition of S. aureus RN4220, primary screen, OD600; 16 h; inhibition, % (concentration not given with the values); 0.33% of 330,000 active;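 active means z-score of -3 or lower and OD600 up to 0.18 on both plates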;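 further: plate controls were untreated cells for no effect and reference antibiotic for full effect; stock transfer was 100 nL into about 80 µL; one replicate is shown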
Mtb hypoxia inh: PubChem AID 1159583; M. tuberculosis hypoxia-regulated fluorescent reporter, fluorescence; fluorescence inhibition, % (concentration not given with the values); 0.1% of 300,000 active;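 active means 35 to 45% if threefold the growth effect, above 45% if 1.5-fold the growth effect; inactive means the rest, general growth blockers included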;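 further: wells of about 50 µL received 100 nL stock; 0% = vehicle wells and 100% = reference inhibitor wells; whole bacteria with a GFP reporter of the hypoxia response; strong numbers were not always called active; many hits fall short of the cut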
Mtb hypoxia inh growth: recorded beside Mtb hypoxia inh, whose call it bears; growth inhibition, %; measured here: M. tuberculosis growth (absorbance);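 0% = vehicle and 100% = reference antibiotic; read after six days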
* marks the source's active call; other numbers are inactive results; . = no result given. Outcome played no part in choosing rows. Share with any hit: about 4%.

canonical_smiles,PrP 5UTR inh,Bead autofluor,BJeLR viability,Sa ugtP lethal,RN4220 kill,Mtb hypoxia inh,Mtb hypoxia inh growth
Cc1ccccc1-n1c(=O)cc(N2CCc3ccccc32)[nH]c1=O,-21.5,6177,13.5,7.8,1.1,-0.7,1.0
Cc1ccccc1OCC(=O)NNC(=O)c1ccc(-c2ccccc2)cc1,-3.5,8046,2.4,11.7,-0.7,2.3,-1.5
COc1ccc(S(=O)(=O)NCc2ccncc2)cc1NC(=O)c1ccc(Cl)cc1,-9.3,5386,12.8,11.1,4.4,0.4,2.4
O=C(CNS(=O)(=O)c1ccc(Cl)cc1)NNC(=O)c1cccnc1,-45.5,4052,5.6,8.1,4.9,8.7,-4.1
CCOc1ccc(NC(=O)C2CCCN(c3nc(C)cc(C)n3)C2)cc1 (stereo not drawn),-14.1,3757,-4.2,0.0,1.6,-0.4,-4.8
O=C(CNC(=O)c1ccccc1)NCC(=O)OCC(=O)c1ccc(F)cc1,-20.8,10840,-1.3,1.4,11.0,1.8,2.4
C/C(=N\N=C(N)N)c1cc(Cl)ccc1Cl,-12.0,2252,-5.8,.,.,.,.
COc1cccc(-c2cc(C(=O)NCC3CCCO3)on2)c1 (stereo not drawn),-19.4,5814,7.7,-3.8,0.3,12.9,7.4
COC(=O)c1ccc(C(NC(=O)c2cccnc2)NC(=O)c2cccnc2)cc1,-11.7,4281,7.7,-6.8,-2.2,-7.6,13.4
Cc1ccc(C)c(NC(=O)CN(C)C(=O)c2ccc(-c3ccc(Cl)cc3)o2)c1,9.9,4066,9.6,-3.2,-4.9,-1.8,-9.3
O=C(Cn1cc(C(=O)c2ccco2)c2ccccc21)NCc1ccco1,-28.6,4222,0.1,-2.6,4.9,3.0,4.7
CCOC(=O)N1CCC(n2c(SCC(=O)N3CCC(C)CC3)nc3ccccc3c2=O)CC1,-41.7,9231,0.7,6.1,2.0,-3.0,3.2
CCOc1ccc(S(=O)(=O)NCc2ccccc2)cc1C(N)=O,-29.1,3612,6.7,4.0,6.1,0.5,1.5
CCNC(=S)NNC(=O)c1ccc(=O)n(Cc2ccccc2)c1,-21.1,2281,4.6,3.4,2.7,7.5,0.6
Cn1c(=O)c2c(nc(NCc3ccccc3)n2C)n(C)c1=O,-12.5,3804,4.6,3.0,5.5,3.5,7.8
CN(C)C(=O)COC(=O)[C@H](Cc1ccccc1)NC(=O)c1ccco1,-9.7,4292,6.8,3.1,2.0,-10.1,4.2
COc1ccc(CNC(=O)CCCn2c(SCC#N)nc3cc4c(cc3c2=O)OCO4)cc1,-9.2,21923*,.,2.2,2.9,6.5,4.8
CCOC(=O)C1=C(C)NC(=O)C(C#N)C1c1ccco1 (stereo not drawn),-15.2,18722*,7.0,4.6,2.8,13.0,2.4
CCOc1ccc(NC(=O)C2CC(=O)N3CCCN=C3S2)cc1 (stereo not drawn),-11.8,3965,-19.3,-5.0,0.6,.,.
O=C(CCNC(=O)c1ccccc1Cl)NCCCSc1ccccc1,-9.9,5984,.,2.4,1.6,0.0,7.0
CCc1nnc(NC(=O)CSc2nnc(C(C)NC(=O)c3ccccc3F)n2C)s1 (stereo not drawn),-22.4,6193,-7.6,8.1,3.0,2.0,6.2
Cc1ccc(C(=O)C(O)C(c2ccc(C)cc2)N2CCCCC2)cc1 (stereo not drawn),-12.4,2450,5.3,5.0,3.9,12.9,0.5
CC(=O)c1ccc(NC(=O)C2CC2c2ccccc2)cc1 (stereo not drawn),-33.0,3853,-2.4,9.6,-1.5,-7.5,-0.7
O=C(Nc1ccc(S(=O)(=O)N2CCCC2)cc1)c1ccc(Cl)nc1,-37.6,5005,-2.2,7.2,4.7,6.0,4.9
CCC(=O)Nc1c(OC(=O)CC)ccc2c(C)cc(=O)oc12,-5.4,4216,0.7,12.4,4.2,.,.
CC1CCN(C(=O)C2CCN(S(=O)(=O)c3cccc4nonc34)CC2)CC1,-2.3,10358,-9.8,4.8,3.0,0.4,4.1
CC1CCCCC1NC(=O)c1ccco1 (stereo not drawn),-8.1,.,.,5.0,-0.3,18.4,17.2
CC(=C/C(=O)O)/C=C/c1ccco1,-24.7,2049,-0.9,3.1,-0.9,10.5,-4.2
C#CCOCCOCCOCCNc1nc(N2CCN(C(=O)C(CCCCN)n3cc(C(N)CO)nn3)CC2)nc(N2CCN(C(=O)C(CCC(=O)O)n3cc(C(N)C(C)CC)nn3)CC2)n1 (stereo not drawn),.,.,.,0.8,4.4,5.9,9.0
COc1ccccc1NC(=O)c1ccccc1C(=O)O,-18.2,4182,5.6,-1.9,-2.4,-1.6,4.9

Quoted from the listing:
CCC(=O)Nc1c(OC(=O)CC)ccc2c(C)cc(=O)oc12 | RN4220 kill = 4.2
CCOC(=O)N1CCC(n2c(SCC(=O)N3CCC(C)CC3)nc3ccccc3c2=O)CC1 | Bead autofluor = 9231
COc1ccc(CNC(=O)CCCn2c(SCC#N)nc3cc4c(cc3c2=O)OCO4)cc1 | RN4220 kill = 2.9
O=C(Nc1ccc(S(=O)(=O)N2CCCC2)cc1)c1ccc(Cl)nc1 | RN4220 kill = 4.7

Continued.
canonical_smiles,PrP 5UTR inh,Bead autofluor,BJeLR viability,Sa ugtP lethal,RN4220 kill,Mtb hypoxia inh,Mtb hypoxia inh growth
O=C(O)CCC(=O)NNC(=O)CCC(=O)NCc1ccccc1,-22.3,4127,3.8,8.5,-1.4,.,.
O=C(CCC(=O)c1ccc(Cl)s1)Nc1ncccc1O,-13.5,.,.,6.0,8.9,17.6,8.1
O=C(COc1ccc2c3c(c(=O)oc2c1)CCC3)N1C[C@H]2C[C@@H](C1)c1cccc(=O)n1C2,-12.1,5709,1.6,-7.1,1.6,.,.
COC(=O)c1ccccc1NC(=O)Cn1c(SC)c(F)cnc1=O,-52.6,19945*,-6.4,2.0,4.2,1.5,0.1
CS(=O)(=O)N(CC(=O)NCCSCc1ccccc1)c1ccccc1Br,-31.3,3311,-4.6,10.2,4.3,5.0,7.5
COc1ccc(CN(C)C(=O)c2oc3ccccc3c2CSC)cc1F,-25.7,3401,-11.4,18.5,3.8,-1.7,6.6
O=C(c1ccc(F)cc1)C1CCN(Cc2cn[nH]c2-c2ccccc2)CC1,-14.8,3609,-0.7,8.2,5.0,6.5,5.5
COC(=O)CN1C(=O)C(O)(CC(=O)c2cccc(Br)c2)c2ccccc21 (stereo not drawn),-11.6,5185,4.7,-11.1,7.9,.,.
Cc1ccc(-n2c(=O)c3sccc3n(CC(=O)NCC3CCCO3)c2=O)cc1F (stereo not drawn),-10.4,3632,4.0,8.3,1.8,4.1,9.6
Cc1c(Br)cc(C(=O)OC2CCN(C)CC2)c(C)c1C,-5.7,9835,-1.7,29.2,0.8,17.0,9.3
CC(OC(=O)Cn1nnc2ccccc21)C(=O)NC1CCCC1 (stereo not drawn),-14.7,6386,-12.1,-3.4,-2.5,5.9,0.6
CN(C)Cc1nc2ccccc2c(=O)n1CC#N,-6.0,3186,-2.5,7.2,1.7,0.5,-3.4
O=C(COc1ccccc1)OCc1csc(Nc2ccccc2)n1,-12.1,2504,-0.2,-5.1,1.9,6.7,5.0
O=C(COC(=O)c1cnc(Cl)c(Cl)c1)NC1CC1,-15.3,4196,.,-2.9,5.6,16.9,8.4
C=CCn1c(SCC(=O)NC2CCCC2)nc2scc(-c3ccco3)c2c1=O,-2.6,4204,-0.6,4.1,-8.2,.,.
COc1cccc(N(CC(=O)NC2CCCC2)C(=O)CCCC(=O)Nc2ccccn2)c1,-13.2,6269,-1.9,1.3,4.2,5.7,-0.9
Cc1noc(/C=C/N(C)C)c1S(=O)(=O)N1CCc2ccccc21,-5.4,6458,.,8.5,4.6,5.9,1.4
COc1ccc(Oc2nc3c(c(=O)n(C)c(=O)n3C)n2Cc2ccccc2)cc1,-2.3,2690,9.3,3.0,-1.8,.,.
COc1cccc(-c2nc(CS(=O)(=O)CC(=O)N3CCN(c4ccccn4)CC3)c(C)o2)c1,-15.4,4318,0.7,3.9,-1.3,6.1,-0.9
CCN(Cc1ccccc1)C(=O)CS(=O)(=O)c1ccccc1,-5.6,4346,5.5,12.4,3.9,3.1,8.3
COC(=O)c1ccc(CN2CCCC(C(=O)c3cc(F)ccc3OC)C2)cc1 (stereo not drawn),-3.9,3976,-1.3,1.5,-5.4,-9.6,-4.5
COc1ccc(C(CC(=O)N2CCCC(C)C2)c2c(OC)cc(OC)c3ccc(=O)oc23)cc1 (stereo not drawn),-1.6,3146,1.8,-6.8,3.7,11.7,9.4
CCCCC1(C)Cc2ccccc2C(=S)N1 (stereo not drawn),-19.4,4335,-4.8,-3.4,-2.3,-4.7,-11.8
CCCCCc1ccnc(CC(=O)c2ccc(OC)cc2)c1,-8.8,7093,.,-0.1,4.6,12.9,17.2
Cn1c(SCc2cccnc2)nc2c(c1=O)SCC2,-14.3,3962,-2.0,2.5,1.5,8.4,8.5
NS(=O)(=O)c1ccc(NC(=O)CCCCC(=O)Nc2ccc(S(N)(=O)=O)cc2)cc1,-11.4,3921,-3.3,1.3,0.5,-3.6,-1.1
CC(Nc1ccccc1)C(=O)Nc1ccc(F)cc1 (stereo not drawn),-10.7,5603,-2.1,-4.6,9.1,-5.0,2.7
CC(=O)N1CCN(c2ccccc2NC(=O)c2ccc3ccccc3c2)CC1,-11.6,2924,-9.1,4.1,0.7,20.6,11.1
CC1CCCN(C(=O)Nc2cccc(NC(=O)N3CCCC(C)C3C)c2)C1C (stereo not drawn),-18.3,3219,-3.0,-0.4,5.4,8.2,3.1
CC(OC(=O)Cc1ccsc1)C(=O)Nc1ccc(C(N)=O)cc1 (stereo not drawn),-30.3,2842,.,6.0,1.7,-8.2,-3.5

Whole records as entered above.
Cn1c(SCc2cccnc2)nc2c(c1=O)SCC2 is listed with PrP 5UTR inh: -14.3; Bead autofluor: 3962; BJeLR viability: -2.0; Sa ugtP lethal: 2.5; RN4220 kill: 1.5; Mtb hypoxia inh: 8.4; Mtb hypoxia inh growth: 8.5
CCCCC1(C)Cc2ccccc2C(=S)N1 (stereo not drawn) is listed with PrP 5UTR inh: -19.4; Bead autofluor: 4335; BJeLR viability: -4.8; Sa ugtP lethal: -3.4; RN4220 kill: -2.3; Mtb hypoxia inh: -4.7; Mtb hypoxia inh growth: -11.8

Next section:
canonical_smiles,PrP 5UTR inh,Bead autofluor,BJeLR viability,Sa ugtP lethal,RN4220 kill,Mtb hypoxia inh,Mtb hypoxia inh growth
Cc1ccc(Cn2c(=N)n(CC(=O)c3ccccc3)c3ccccc32)cc1,3.4,2071,1.5,-33.8,-5.4,2.5,4.1
COC(=O)c1sccc1NC(=O)c1c(F)c(F)c(F)c(F)c1F,.,5625,-1.5,30.4,-5.7,.,.
Cc1nnc(NC(=O)/C=C/c2ccco2)s1,-23.9,2158,2.6,-1.7,-2.5,-4.5,-7.9
CCC(=O)Nc1cc(ON=C(C)C)cc([N+](=O)[O-])c1,0.9,2176,-1.8,19.0,6.5,13.8,0.9
Clc1ccc(-n2cnnn2)cc1,-8.5,4185,-2.8,1.6,2.5,4.4,-2.7
COc1ccc(CN2CCN(S(=O)(=O)c3ccc(NC(C)=O)cc3)CC2)c(OC)c1OC,-11.9,4052,-1.4,1.5,2.5,-1.6,2.4
COc1ccc(S(=O)(=O)N2CCCC2C(=O)Nc2ccc(O)cc2)cc1 (stereo not drawn),-45.8,5375,0.6,-0.2,-0.6,.,.
CCOc1ccc(C(=O)NC2CCN(S(C)(=O)=O)CC2)cc1,-19.6,3563,0.0,3.6,2.6,10.6,6.9
CC1CCCCN1C(=O)C1COc2ccccc2O1 (stereo not drawn),-16.9,3092,-6.1,1.3,3.7,6.4,8.6
Cc1nc(NC(=O)COC(=O)c2cc3c(s2)CCC(C)C3)c(Cl)cc1Cl (stereo not drawn),-17.1,2738,0.1,-8.7,5.3,9.3,1.6
COc1ccc2oc(C(=O)OCC(=O)NCc3ccco3)c(C)c2c1,-22.6,5609,9.0,5.2,4.1,6.2,6.9
O=C(CSc1nnc([C@@H]2CCCN2)o1)c1ccc(Cl)cc1,-4.3,5740,3.3,-4.0,3.3,-5.2,8.5
S=c1[nH]nc(-c2ccccc2)n1/N=C/c1cccc(Br)c1,-16.4,3124,-26.4,.,.,.,.
C=CCn1c(-c2cc3cccc(OC)c3o2)n[nH]c1=S,-2.2,4556,-28.9,2.3,2.0,8.9,13.8
Cc1ccccc1N1CCN(CCCN2C(=O)CC(=C(c3ccccc3)c3ccccc3)C2=O)CC1,-22.6,3293,-2.0,17.1,-9.7,14.5,9.9
